A488 autofl: compound fluoresces in the A488 spectral region. AID 591. max dye equivalency, M. compound autofluorescence, A488 spectral region, dye equivalency; hits give high values. hit rate 0.1% among 59,000; active = above 10 nM dye equivalent; inconclusive = 1 to 10 nM; inactive = 1 nM or less; about half of its hits are not listed in these tables;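 further: highest value over a series up to 38 µM; compound alone in buffer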
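Readout is A488 dye-equivalent concentration, calibrated by a per-plate six-point Alexa 488 series. Compounds in 100 mM Tris buffer pH 8.0 were incubated 15 min at room temperature. Plates were imaged using 480 nm excitation/540 nm emission filters.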
TSHR ag: TSH receptor (human) agonism; AID 926; HEK293-CNG-TSHR cells (CNG channel as cAMP sensor), membrane potential dye, cAMP; Potency, µM (highest dose often 57.1 µM), inactives show at the highest dose activation, hits mostly activators; P16473; hit rate 0.48% among 73,000; active = well fitted activation curve of enough size with the parental cells flat; inconclusive = any curve in the parental cells; inactive = parental cells flat and receptor cells flat or falling; further: potency means the concentration at half of the fitted maximal effect; % of control where 0% means no effect; weak receptor curves with flat parental cells got no call and are not listed
Target sequence (P16473 whole entry, looked up): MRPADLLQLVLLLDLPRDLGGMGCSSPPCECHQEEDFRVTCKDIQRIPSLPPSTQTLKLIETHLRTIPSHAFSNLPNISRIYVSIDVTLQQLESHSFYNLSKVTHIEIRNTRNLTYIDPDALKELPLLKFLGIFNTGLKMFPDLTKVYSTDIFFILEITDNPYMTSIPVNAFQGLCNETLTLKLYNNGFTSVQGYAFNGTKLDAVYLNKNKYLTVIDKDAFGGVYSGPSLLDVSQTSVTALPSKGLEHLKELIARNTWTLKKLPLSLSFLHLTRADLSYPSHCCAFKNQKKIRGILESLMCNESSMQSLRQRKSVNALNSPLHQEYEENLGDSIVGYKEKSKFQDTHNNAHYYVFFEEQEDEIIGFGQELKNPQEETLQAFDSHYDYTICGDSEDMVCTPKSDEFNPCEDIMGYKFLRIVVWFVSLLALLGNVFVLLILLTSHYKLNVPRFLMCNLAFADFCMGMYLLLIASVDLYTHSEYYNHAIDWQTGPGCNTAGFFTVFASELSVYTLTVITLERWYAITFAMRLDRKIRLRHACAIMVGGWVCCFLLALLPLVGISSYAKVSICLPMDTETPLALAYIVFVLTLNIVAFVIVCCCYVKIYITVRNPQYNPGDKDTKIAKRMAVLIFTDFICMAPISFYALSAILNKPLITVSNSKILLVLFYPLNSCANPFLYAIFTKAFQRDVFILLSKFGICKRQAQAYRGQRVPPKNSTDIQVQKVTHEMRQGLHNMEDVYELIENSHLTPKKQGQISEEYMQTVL
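cAMP rise detected as CNG-channel membrane depolarization by fluorescent dye (emission 590 nm), 30 min after compound, following 60 min dye loading containing 100 uM RO 20-1724 at room temperature. Cells: TSHR/CNG HEK 293, with parental CNG HEK 293 as control.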
A647 autofl: A647 region autofluorescence; Compound fluorescence, A647 channel (570/671 nm), Tris buffer; max dye-equivalent concentration, M; 59,000 tested, under 10 active; active means above 1 µM dye equivalent; inconclusive means 0.1 to 1 µM; inactive means 0.1 µM or less;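 further: values scaled relative to a standard on each plate; highest value over a series up to 38 µM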
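Spectral profiling of library compounds in pH 8.0 Tris: 15 min room-temperature incubation, single ex/em pair (570/671 nm), response normalized to Alexa 647 equivalents.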
Resorufin autofl: compounds fluorescent in resorufin spectral region; Compound fluorescence, resorufin region 547/598 nm, buffer; hits give high values; max dye-equivalent concentration, M; hit rate 0.04% among 59,000; AID 588; active = above 10 nM dye equivalent; inconclusive = 1 to 10 nM; inactive = 1 nM or less; a few of its hits are not listed in these tables; further: highest value over a series up to 38 µM
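Compounds in 100 mM Tris buffer, pH 8.0, incubated 15 min at room temperature, then read with 547 nm excitation and 598 nm emission filters. Fluorescence was converted to dye-equivalent concentration using an on-plate six-point resorufin standard curve.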
AID923: qHTS Assay for Allosteric/Competitive Inhibitors of Caspase-1: Spectroscopic Profiling in AFC Spectral Region; compound fluorescence, AFC spectral region (405/520 nm); almost no hit is shown here; hit rate 1.1% among 75,000; Potency, µM (titrated, usually from 57.5 µM), for inactives: top-dose fluorescence increase, usual class: activators; active means well fitted activation curve with a large enough effect; inconclusive means small, poorly fitted or top-dose-only effect;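 further: potency means the concentration at half of the fitted maximal effect; 0% is about no effect; scaled to a free AFC standard on each plate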
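Compound autofluorescence profiled at 405 nm ex/520 nm em during kinetic caspase 1 run (50 nM enzyme, 5 uM Ac-WEHD-AFC, HEPES pH 7.5, 10 mM DTT). Titration up to 57 uM; baseline from regression intercept, normalized to AFC standard curve.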
Numbers without * were called inactive; i = inactive; ? = inconclusive; . = no result given; [ ] = another dose, or the depositor's remark. Only part of the results is shown (hit frequency here may not be typical).

Values run as follows: A647 autofl	A488 autofl	AID923	Resorufin autofl	TSHR ag
CCOC(=O)c1[nH]c2ccc(C)cc2c1N=CN(CC)CC
→ 7.9e-08	i	.	i	.
CCCC(=O)Nc1cc(C)c(NC(=O)c2ccccn2)cn1
→ 1e-09	i	-0.1%	i	6%
CC(NC(=O)Cc1cccs1)C(c1cccs1)N1CCN(c2ccccc2F)CC1 (stereo not given)
→ 4.1e-08	i	-0.5%	i	11%
CC(C)CSc1nnc2[nH]c(=O)cc(N)n12
→ 1e-09	i	0.5%	i	0%
O=C(N1CCOCC1)N1CCOCC1
→ 6.9e-09	i	-0.2%	i	-3%
c1ccc2c(c1)OCC(c1nnc3n1-c1ccccc1SC3)O2 (stereo not given)
→ 3.7e-09	i	-0.5%	i	18%
CC(=O)c1cc(C)ccc1OC(=O)c1cccc2nc(C)oc12
→ 9.7e-09	i	1.1%	i	16%
Cn1c(=O)c2c(-c3ccccc3)n(C3CCCCC3)cc2n(C)c1=O
→ .	.	2.1%	.	7%
COC(=O)CC1Sc2ccccc2NC1=O (stereo not given)
→ 5.3e-08	i	1.2%	i	1%
COc1ccc(C(=O)NCc2n[nH]c(=S)n2-c2ccccc2)cc1OC
→ 1e-09	i	0.0%	i	6%[11.4 µM]
Cc1ccc(/C=N/n2cnc3sc4c(c3c2=O)CCCC4)o1
→ .	.	2.8%	.	3%
CC(=O)Nn1c(COc2ccccc2C)nc2ccccc2c1=O
→ 1e-09	i	-1.0%	i	8%
COc1ccc(-c2noc(CCC(=O)Nc3ccc4c(c3)OCCO4)n2)cc1
→ 1.3e-09	i	0.6%	i	?
O=C(Cn1nnc(-c2ccncc2)n1)Nc1ccc2c(c1)CCC2
→ 1.6e-08	i	0.2%	i	-1%
COC(=O)[C@H](C)NC(=O)Nc1ccc(Oc2ccccc2)cc1
→ 5.1e-08	i	-0.9%	i	-3%
CN(C)CCOC(=O)c1ccc(N)cc1
→ 3.4e-08	i	2.1%[11.5 µM]	i	4%[11.4 µM]
C#C[C@@]1(O)CC[C@@H]2[C@@H]3CCC4=C(CCC(=O)C4)[C@H]3CC[C@]21C
→ 1e-09	i	-0.6%[25.7 µM]	i	?
CCOC(=O)N1CCC(NC(=O)c2cc3c(-c4ccccc4F)nn(C)c3s2)CC1
→ .	.	0.8%	.	6%
COc1ccc(C2=NOC(Cn3c(Cc4ccc(Cl)cc4)nc4c3c(=O)n(C)c(=O)n4C)C2)cc1 (stereo not given)
→ 1e-09	i	3.2%	i	25%
O=C(CN1CCN(C(=O)c2cccc(F)c2)CC1)NC1CCCCC1
→ 3.1e-08	i	-1.2%	i	3%
COc1ccc(-c2c(C)nn3c(N4CCC(C(=O)NCCN(C)C)CC4)cc(C)nc23)cc1OC
→ 1e-09	i	1.0%	i	-4%
CS(=O)(=O)N(CC(=O)Nc1ccc2c(c1)OCO2)Cc1ccccc1
→ 1.4e-08	i	0.0%	i	8%
CS/C(=N\S(=O)(=O)c1ccc(N)cc1)NS(=O)(=O)c1cccs1
→ 3.7e-09	i	0.6%	i	-2%
CC1CC(C(F)(F)C(F)(F)F)n2nc(C(=O)O)cc2N1 (stereo not given)
→ 1e-09	i	1.4%	i	5%
Cc1ccc(SC/C(O)=C(\C#N)c2nc3ccccc3s2)cc1
→ 4e-08	i	0.8%	i	?
COCCCNC(=O)C1CCCCN1S(=O)(=O)c1ccc(F)cc1 (stereo not given)
→ 3.9e-08	i	-0.1%	i	-9%
O=C(NC1CCCC1)C(c1ccncc1)N(Cc1cccs1)C(=O)c1csnn1 (stereo not given)
→ 1e-09	i	4.2%	i	?
N#CCCCSc1ncccc1-c1nc2ccccc2[nH]1
→ 1.3e-08	i	0.8%	i	-1%
COc1cc(C2NC(C(=O)O)Cc3c2[nH]c2ccccc32)cc(OC)c1OC (stereo not given)
→ .	.	1.9%[11.5 µM]	.	3%[11.4 µM]
Fc1ccc(CN(C2=NCCN2)c2c(Cl)cccc2Cl)cc1
→ 6.2e-08	i	-2.9%	i	.
O=C(O)C1(Nc2ccc(Cl)cc2)CCCC1
→ 3.7e-08	i	-0.1%[11.5 µM]	i	4%[11.4 µM]
CSc1nc(C)cc(Nc2ccc(O)c(CN3CCCCC3)c2)n1
→ 1e-09	i	-1.2%[11.5 µM]	i	-1%[11.4 µM]
O=C(c1noc2c1CCCC2)N1CCN(c2ccccc2)CC1
→ 1e-09	i	-0.3%	i	2%
C[C@H](C(=O)O)c1n[nH]c(=O)c2ccccc12
→ 2.2e-08	i	-0.4%	i	-3%[11.4 µM]
Clc1ccccc1-c1nccc(NCCN2CCOCC2)n1
→ 1e-09	i	-0.9%	i	10%
COCC(=O)N1CCC2(CC1)CN(C(=O)Nc1ccc(OC)cc1)C2
→ 1.6e-08	i	1.4%	i	4%
c1ccc2c(Cn3ccnc3)c[nH]c2c1
→ .	.	-0.7%	.	3%[11.4 µM]
O=C(COc1ccccc1)N1CCN(c2ncnc3c2cnn3-c2ccccc2)CC1
→ 1.8e-09	i	-0.8%	i	20%
COc1cccc(C2CC(c3ccc(Cl)cc3Cl)n3nc(N)nc3N2)c1 (stereo not given)
→ .	.	-3.8%	.	10%
Cc1nc(=S)n(-c2ccccc2)[nH]1
→ 2.6e-08	i	-0.7%	i	-6%

An excerpt of these results, in markdown.
| SMILES | A647 autofl | A488 autofl | AID923 | Resorufin autofl | TSHR ag |
| --- | --- | --- | --- | --- | --- |
| COc1cccc(C2CC(c3ccc(Cl)cc3Cl)n3nc(N)nc3N2)c1 (stereo not given) | . | . | -3.8% | . | 10% |
| Cc1nc(=S)n(-c2ccccc2)[nH]1 | 2.6e-08 | i | -0.7% | i | -6% |

Two of the compounds above, as labelled records:
COC(=O)CC1Sc2ccccc2NC1=O (stereo not given)
  A647 autofl: 5.3e-08 | A488 autofl: i | AID923: 1.2% | Resorufin autofl: i | TSHR ag: 1%
O=C(NC1CCCC1)C(c1ccncc1)N(Cc1cccs1)C(=O)c1csnn1 (stereo not given)
  A647 autofl: 1e-09 | A488 autofl: i | AID923: 4.2% | Resorufin autofl: i | TSHR ag: ?

The listing continues.
Values run as follows: A647 autofl	A488 autofl	AID923	Resorufin autofl	TSHR ag
Cn1c(=O)n(CCc2ccccc2)c(=O)c2c1ncn2Cc1ccccc1
→ 5.2e-08	i	.	i	.
NC(=O)c1cc2n(n1)C(C(F)(F)F)CC(c1ccco1)N2 (stereo not given)
→ 3.7e-08	i	1.0%	i	5%
CCOc1ccc(NC(=O)CN2CCN(CC(=O)Nc3cccc(F)c3)CC2)cc1
→ 2.2e-08	i	1.8%	i	11%
Cn1nccc1C(=O)c1ccc(Cl)cc1
→ 4.1e-09	i	-0.4%	i	-2%
CC1C(=O)OC2C(O)C34C5CC(C(C)(C)C)C36C(OC(=O)C6O)OC4(C(=O)O5)C12O (stereo not given)
→ .	.	-1.8%	.	1%
COc1ccc(OCc2nnc3n2N=C(c2ccc(C)cc2)CS3)cc1
→ .	.	0.6%	.	?
COc1ccc(C(C(C(=O)c2ccco2)N2CCOCC2)N2CCOCC2)cc1 (stereo not given)
→ 1.7e-09	i	1.0%	i	10%
CC(=O)c1cccc(NC(=O)CN(Cc2ccccc2)S(C)(=O)=O)c1
→ 8.6e-09	i	-3.4%	i	4%
COc1ccc(NC(=O)CSc2nccc(C)n2)cc1
→ 3.5e-08	i	-0.3%	i	-2%
COC(=O)c1sc(N)c(C(=O)OC)c1COC(=O)C1CC(=O)N(Cc2ccco2)C1 (stereo not given)
→ 1e-09	i	1.4%	i	1%
Cc1nc(-c2ccccc2O)n(S(=O)(=O)N(C)C)n1
→ 1e-09	i	1.0%	i	1%
CCC(C)[C@H](NC(=O)NC1CC1)C(=O)O (stereo not given in full)
→ 1.1e-09	i	-2.2%	i	-1%
COc1cccc(-c2nnc3sc(-c4ccc(C)cc4)nn23)c1
→ 1e-09	i	.	i	.
CCOC(=O)C1CCCN(C(=O)C2CCN(S(=O)(=O)c3cnc[nH]3)CC2)C1 (stereo not given)
→ 3.7e-09	i	-1.0%	i	-3%
O=C1CC(Sc2nnc(-c3ccccc3)o2)C(=O)N1c1ccccc1 (stereo not given)
→ 1.2e-08	i	1.2%	i	-9%
CCc1nnc(NC(=O)CN2C(=O)c3ccccc3S2(=O)=O)s1
→ 2.3e-08	i	1.5%	i	0%
C(=C\c1ccccc1)/CSc1nnc(-c2cccnc2)o1
→ .	.	1.2%	.	20%
CCOCCCN1CC(C(=O)NCCc2ccccc2)CC1=O (stereo not given)
→ 1.9e-08	i	-0.8%	i	2%[11.4 µM]
CCOC(=O)C1CCN(Cc2cn[nH]c2-c2ccccc2)CC1
→ 1.8e-08	i	0.5%	i	22%
O=C(O)CSc1nnc(-c2ccncc2)n1C1CCCCC1
→ 9.1e-09	i	0.0%	i	0%
Cc1nn(Cc2ccccc2)c(C)c1NC(=O)CCC(=O)O
→ 1e-09	i	-1.8%	i	-1%
CCCn1c(C)cc(C(=O)COC(=O)c2ccc(Cl)c(S(=O)(=O)N3CCCC3)c2)c1C
→ 1.4e-09	i	-0.2%	i	?
O=C(CCC1CCCC1)N1CCC(N2CCN(c3ccccc3)CC2)CC1
→ 1e-09	i	.	i	.
Cc1cnc(CNc2ccnc(-c3ccc(N(C)C)cc3)n2)cn1
→ 4.3e-08	i	-1.7%	i	9%
Cc1ccccc1OCC1CN(CN2CCOCC2)C(=O)O1 (stereo not given)
→ 6.7e-09	i	-0.8%	i	10%
O=C(COC(=O)c1cc(S(=O)(=O)N2CCOCC2)cs1)c1ccccc1
→ 2.5e-08	i	-1.7%	i	-6%
O=C(CSc1nnc(-c2ccc(NS(=O)(=O)c3ccccc3)cc2)o1)NCC1CCCO1 (stereo not given)
→ 6.2e-08	i	-2.3%	i	-8%
COC(=O)c1cn(C)c2ccc(S(=O)(=O)N3CCCCC3)cc2c1=O
→ 2.6e-09	i	2.3%	i	2%
COc1ccc(-n2c(SCC#N)nnc2-c2ccc(NS(=O)(=O)c3ccc(C)cc3)cc2)cc1
→ 1e-09	i	0.9%	i	10%
C=CCn1c(=O)/c(=C/c2cc(OC)c(OC)c(OC)c2)s/c1=C(/C#N)c1nc2ccccc2n1C
→ 6.5e-08	1.5e-08M*	7.6%	i	-8%
O=C(NCc1ccc2c(c1)OCO2)C1CCN(Cc2cnn(-c3ccccc3)c2-n2cccc2)CC1
→ 1e-08	i	-0.2%	i	?
O=C(CSc1nnnn1C1CCCC1)N1CCN(C(=O)c2ccco2)CC1
→ 4.3e-08	i	-1.5%	i	-1%
N#CCCn1c(SCC(=O)N2CCN(S(=O)(=O)c3ccccc3)CC2)nc2ccccc21
→ 3.4e-08	i	0.2%	i	0%
O=C(O)c1cccc(COCC(F)(F)C(F)F)c1
→ 1.1e-09	i	-1.9%	i	-2%
Cc1ccccc1-c1nc(NCc2cccnc2)c2ccccc2n1
→ 4.9e-08	i	-3.5%	i	?
COc1ccc2oc(=O)c(C(=O)N3CCN(c4ccccc4)CC3)cc2c1
→ 1e-09	i	3.0%	i	10%
O=C1c2ccccc2S(=O)(=O)N1CC1CC(c2ccccc2)=NO1 (stereo not given)
→ 5.8e-09	i	-2.7%	i	4%
COC(=O)c1ccsc1NC(=O)CSc1nnnn1-c1ccccc1SC
→ 6.4e-09	i	-0.2%	i	?
CCCOC(=O)Nc1ccc(S(=O)(=O)Nn2cnnc2)cc1
→ .	.	8.7%	.	4%[11.4 µM]
CCOc1ccc(C2C(C(=O)OC)=C(C)N=C3SCCC(=O)N32)cc1OCC (stereo not given)
→ 1.2e-09	i	0.2%	i	0%
c1cc(NNc2cccc(-c3nn[nH]n3)c2)cc(-c2nn[nH]n2)c1
→ 4.3e-08	i	3.8%[11.5 µM]	i	-2%[11.4 µM]
COC(=O)Cn1c(C)nc(=O)c(-c2ccccc2)c1C
→ .	.	5.2%	.	-1%
Cc1cc(C)c(C(=O)Nc2ccc(S(=O)(=O)Nc3onc(C)c3C)cc2)c(C)c1
→ .	.	1.6%	.	7%

Bioassay records (PubChem BioAssay)
